Screening data as filed in PubChem.
RE007 growth inh: less growth of the S. pombe RE007 Vpr strain. S. pombe RE007 Vpr strain, BacTiter-Glo ATP luminescence, 24 h; control for the full effect not named in the record. Potency, µM (titrated, usually from 92.2 µM), without a hit: at the highest dose activity change, negative = less growth. actives 0.21% (n = 360,000). AID 651644; active = well fitted falling curve with a large enough effect; inconclusive = small, poorly fitted or top-dose-only effect; inactive = no such curve, though single readings can be large or run the other way;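 also: % is scaled to controls: 0 for no effect and ±100 for the full control effect; nearly all actives have a fitted effect of over 50% in size; the assay follows cell death caused by Vpr and the record does not say whether a fall means rescue or toxicity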
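Fission yeast RE007 carrying one integrated HIV-1 vpr copy, seeded at OD 0.01 in PMG+AL medium with 23 nL pinned compound. Grown 24 h at 30 degrees; viability read by BacTiter-Glo luminescence after 5 min.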
StopGo reporter: FMDV 2A StopGo reporter, luciferase signal | human cells with a luciferase reporter of 2A StopGo recoding; control for the full effect not named in the record | Potency, µM (series often up to 57.9 µM), for the others: at the top dose signal change, negative = less light | actives 1.2% (n = 410,000) | AID 1159524; active = well fitted falling curve with a large enough effect; inconclusive = small, poorly fitted or top-dose-only effect; inactive = no such curve, though single readings can be large or run the other way; tested in HEK293T cells; also: % is scaled to controls: 0 for no effect and ±100 for the full control effect; nearly all actives have a fitted effect of over 45% in size; luciferase light after 4 h
Cruzain Triton: blocks cruzain activity in presence of Triton detergent | P25779 | Potency, µM, without a hit: max response, negative = inhibition, usual class: inhibitors | purified cruzain, Z-FR-AMC fluorescence, 0.01% Triton | actives 0.43% (n = 200,000); active = well fitted curve in the direction sought with a large enough effect; inconclusive = small, poorly fitted or top-dose-only effect, or another doubt; inactive = no such curve, though single readings can be large; an effect the other way counts as inactive or inconclusive;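 also: plate controls were neutral wells for no effect and buffer without enzyme for full effect; nearly all actives have a fitted effect of over 40% in size; top concentration of the series not given in the record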
Target sequence (P25779 123-467 limits assumed): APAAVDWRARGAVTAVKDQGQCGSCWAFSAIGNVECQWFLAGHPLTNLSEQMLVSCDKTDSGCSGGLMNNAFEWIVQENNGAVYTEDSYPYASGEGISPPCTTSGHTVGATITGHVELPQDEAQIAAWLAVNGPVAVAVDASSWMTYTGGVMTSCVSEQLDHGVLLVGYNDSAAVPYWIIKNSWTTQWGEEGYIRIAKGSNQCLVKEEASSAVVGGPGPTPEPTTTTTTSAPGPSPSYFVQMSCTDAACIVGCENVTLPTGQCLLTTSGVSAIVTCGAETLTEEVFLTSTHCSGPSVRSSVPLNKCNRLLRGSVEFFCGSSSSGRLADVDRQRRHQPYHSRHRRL
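Sodium acetate buffer (100 mM, pH 5.5) containing 5 mM DTT and 0.01% Triton X-100 hosted 1.5 nM cruzain and test compound for 15 min at room temperature. Cleavage of 2 uM Z-FR-AMC was then tracked by fluorescence.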
Cruzain inh noDet: inhibitors of Trypanosoma cruzi cruzain without detergent; P25779; purified cruzain, Z-FR-AMC fluorescence, no detergent; Potency, µM, for the others: max response, negative = inhibition, actives largely listed as inhibitors; actives 2.3% (n = 200,000); active = well fitted curve in the direction sought with a large enough effect; inconclusive = small, poorly fitted or top-dose-only effect, or another doubt; inactive = no such curve, though single readings can be large; an effect the other way counts as inactive or inconclusive;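 also: plate controls were enzyme without inhibitor for no effect and buffer without enzyme for full effect; nearly all actives have a fitted effect of over 40% in size; top concentration of the series not given in the record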
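Purified cruzain at 1.5 nM, pre-incubated 15 min with compound at room temperature in 100 mM sodium acetate pH 5.5, 5 mM DTT, 0.00005% Triton X-100. Reaction started with 2 uM Z-FR-AMC; AMC fluorescence increase over 60 s gives rate.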
SARS PLpro yeast: inhibitors of SARS-CoV papain-like protease in yeast | S. cerevisiae expressing SARS-CoV PLpro, growth rescue; control for the full effect not named in the record | Potency, µM (top dose mostly 32.9 µM), inactives show at the top dose activity, positive = growth rescue | actives 0.19% (n = 330,000) | AID 485353; also: 0% is about no effect; nearly all actives have a fitted effect of over 55% in size; growth read by luminescence after 48 h
NS1 inh: blocks influenza NS1 protein function | S. cerevisiae slowed by influenza A NS1, growth recovery by OD600 | Potency, µM (doses to about 46.1 µM), without a hit: top-dose activity, positive = more growth | actives 0.4% (n = 270,000); also: actives are rising curves; nearly all actives have a fitted effect of over 50% in size
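Recovery from NS1-induced slow growth read by OD600 in budding yeast switched to galactose assay medium (pH 6.0, -URA) at 1:100 dilution. Compound 23 nl per well; the matching strain lacking NS1 serves as control.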
Marburg entry inh: blocks Marburg virus binding to or entry into cells | Marburg virus pseudotyped entry inhibition, cell reporter; control for the full effect not named in the record; about a third of the inactives were read at about 46 µM | Potency, µM (doses to about 37.8 µM), without a hit: at the top dose activity change, negative = inhibition, actives largely listed as inhibitors | actives 1.8% (n = 300,000); active = well fitted inhibition curve with a large enough effect; inconclusive = small, poorly fitted or top-dose-only effect, or effect the other way; inactive = flat fitted curve, though single readings scatter; tested in HEK293 cells; about a fifth of its hits are not listed in these tables; also: % is scaled to controls: 0 for no effect and ±100 for the full control effect; luciferase read-out
Lassa entry inh: inhibitors of Lassa virus binding or cell entry; actives 1.2% (n = 300,000); AID 540256; Potency, µM (top dose mostly 37.9 µM), inactives show at the top dose activity change, negative = inhibition, hits mostly inhibitors; Lassa virus pseudotype entry inhibition, cell reporter; control for the full effect not named in the record; active means well fitted inhibition curve with a large enough effect; inconclusive means small, poorly fitted or top-dose-only effect, or effect the other way; inactive means flat fitted curve, though single readings scatter; tested in HEK293 cells; also: % is scaled to controls: 0 for no effect and ±100 for the full control effect; nearly all actives have a fitted effect of over 50% in size; luciferase read-out
* marks the source's active call; other numbers are inactive results; ? = inconclusive; / = no result given; & = joins results of further samples; [ ] = remark or other dose. Unless noted, calls follow the shape of the dose curve; as a rule, active means well fitted rising curve with a large enough effect; inconclusive means small, poorly fitted or top-dose-only effect; inactive means no such curve, though single readings can be large or run the other way. Potency is read from the fitted curve at half-maximal effect.

SMILES | RE007 growth inh | StopGo reporter | Cruzain Triton | Cruzain inh noDet | SARS PLpro yeast | NS1 inh | Marburg entry inh | Lassa entry inh
O=C(CCc1ccccc1)N/N=C/c1cccc([N+](=O)[O-])c1 | -6.6% | 7.5% | / | / | -1.2% | -0.6% | / | /
COC(=O)c1ccc(COc2ccc(C=O)cc2)o1 | 1.7% | 25.0% | / | / | 4.3% | -64.2% | / | /
O=C(NCC(=O)N1CCN(c2ccccc2)CC1)c1ccccc1 | 17.7% | 9.1% | / | / | -0.1% | 3.2% | 12.2%[46.1 µM] | 11.6%[46.1 µM]
O=C(O)CCCCCNc1nc(-c2ccccc2)nc2ccccc12 | -6.3% | -3.0% | / | / | -1.1% | 1.8% | / | /
N#CC1(Nc2ccccc2)C(=O)Nc2ccccc21 (stereo unspecified) | -7.8% | -24.1% | 1.7% | 8.8% | 0.9% | -2.1% | 1.1% | 9.5%
CC1CCCC(NC(=O)COC(=O)/C=C/c2ccc(F)cc2)C1C (stereo unspecified) | -15.9% | -2.0% | / | / | 1.1% | / | -2.2% | -10.6%
O=C(NCCN1CCCCC1)c1ccc(Cn2c(SCc3ccc(F)cc3)nc3cccnc32)cc1 | / | 8.9% | -6.8% | -1.5% | / | / | ? | /
CC(C)(C)C1CCc2c(sc(NC(=O)c3cc4ccccc4c(=O)o3)c2C(N)=O)C1 (stereo unspecified) | / | -21.9% | -9.9% | -1.9% | / | / | 10.3%[46.1 µM] | ?
CN(C)CC1C2CCC(C2)C1O (stereo unspecified) | -9.4% | -6.3% | / | / | / | / | -1.3%[46.1 µM] | -2.4%[46.1 µM]
Cc1ccc(C)c(NS(=O)(=O)c2ccc(OCC(=O)N3CCCC3)cc2)c1 | 2.7% | 15.2% | 2.7% | -0.4% | 0.9% | 4.1% | -1.4% | -10.3%
CCCCOC(=O)c1ccc(NC(=O)Cc2coc3c(C)c(C)ccc23)cc1 | / | -24.1% | -5.8% | -11.7% | / | / | -28.2%[46.1 µM] | -9.0%[46.1 µM]
CCN1CCN(CCOCCOc2ccccc2)CC1 | 9.5% | -10.1% | / | / | 12.8% | -2.9% | / | /
Cc1ccc(C(C(=O)NC2CCCC2)N(C(=O)CCC(=O)Nc2cc(C)on2)c2ccccc2)cc1 (stereo unspecified) | 3.9% | -17.7% | -0.5% | 12.3% | -11.8% | 1.4% | ? | 4.6%
Cc1ccc(NC(=O)CSc2nc3nccnc3c(=O)n2CCc2c[nH]c3ccccc23)cc1C | / | -8.7% | -4.3% | 13.2% | / | / | / | 3.4%[46.1 µM]
CC1=CS/C(=C(/C#N)C(=O)N2CCOCC2)N1c1ccccc1 | 4.7% | 5.9% | -4.9% | -1.6% | -7.0% | -1.5% | -11.5% | 16.9%
O=C(CN(Cc1ccccc1Cl)C(=O)CN1C(=O)CSc2ccccc21)NC1CC1 | -5.0% | -28.1% | / | / | -0.3% | -5.8% | ? | 6.1%
CCOc1ccc(-c2cc(CCCC(=O)NCCC(C)C)no2)cc1 | -4.1% | 1.9% | / | / | 0.4% | / | -1.1%&-1.1%[46.1 µM] | -20.6%[46.1 µM]
CCOC(=O)Nc1ccc(C)cc1Br | -10.1% | 22.4% | 6.2% | 5.8% | 5.3% | 4.6% | 3.6% | 2.1%
C=C(C)C1CC=C(C)/C(=N/NC(=O)COc2ccc(C)cc2)C1 (stereo unspecified) | -10.4% | -11.9% | -4.1% | -21.1% | 7.2% | 15.5% | ? | -0.4%
CCN(c1ccccc1)S(=O)(=O)c1ccc(C(=O)N(CCCN(C)C)c2nc3c(C)cccc3s2)cc1 | -8.3% | ? | / | / | -0.7% | 4.0% | ? | ?
CCc1ccc(CN2CCN(c3ncccn3)CC2)cc1 | 0.0% | 8.6% | / | / | 1.2% | -4.3% | / | /
COc1ccccc1C(=O)C1CCCN(C(=O)c2cccnc2SC)C1 (stereo unspecified) | -22.4% | 0.5% | / | / | 0.4% | 0.1% | -15.1%[46.1 µM] | -7.7%
COc1ccccc1C(O)(C(=O)NN(C(=O)c1ccccc1)c1ccccc1C)c1cccs1 (stereo unspecified) | 10.1% | -23.9% | 2.8% | -5.5% | -12.0% | 2.3% | ? | -17.6%
COc1ccc(C(CC(=O)c2ccccc2)CC(=O)c2ccccc2)cc1 | 10.2% | 0.8% | / | / | -1.5% | -6.6% | ? | -29.2%[46.1 µM]
O=C(CCc1nc(-c2cccs2)no1)NCc1ccc(F)cc1Cl | 9.0% | -3.6% | -1.6% | 8.2% | -5.8% | -46.0% | / | /
COc1cc2c(cc1OC)C(C(=O)NC(C)c1ccccc1)CC(=O)N2 (stereo unspecified) | 3.2% | 5.6% | / | / | -1.7% | 1.1% | 9.3%[46.1 µM] | -10.5%[46.1 µM]
CC(Sc1ncccn1)C(=O)Nc1ccc2c(c1)OCO2 (stereo unspecified) | 6.8% | 2.8% | / | / | 2.3% | / | -1.1% | -1.6%
Cc1cccc(Cn2cccc2CNS(=O)(=O)c2ccc(Br)cc2)c1 | / | 42.3%[activator] | -11.4% | -5.4% | / | / | / | 18.1%[46.1 µM]
Cc1ccc(NC(=O)CN2C(=O)S/C(=C/c3ccc(-c4cccc(C(=O)O)c4)o3)C2=O)cc1 | 0.0% | 15.5% | / | / | 0.9% | 2.3% | ? | ?
CCCC(=O)NC(Nc1ccccc1OC)C(Cl)(Cl)Cl (stereo unspecified) | -10.7% | -10.9% | 2.4% | -1.1% | ? | 2.4% | 0.8% | -4.7%
Cc1ccc(S(=O)(=O)Cn2nnnc2C(c2ccccc2)N2CCN(c3ncccn3)CC2)cc1 (stereo unspecified) | 3.0% | 7.1% | -2.8% | 28.0% | -12.4% | 13.2% | -12.2% | 2.2%
CCOc1cccc(CNc2ccc(O)cc2)c1OCc1ccccc1Cl | ? | ? | -15.2%&-9.5% | -29.8%&21.8% | -63.0% | -26.4% | -8.0%[46.1 µM] | ?
COc1ccc(-c2cc3ccc(O)c(CN4CCN(CCO)CC4)c3oc2=O)cc1OC | / | -11.2% | -4.7% | -16.2% | / | / | / | -16.3%[46.1 µM]
Cc1ccc(NC(=O)CN2CCN(S(=O)(=O)c3ccc(F)cc3)CC2)cc1C | ? | ? | / | / | 2.3% | / | -10.5% | -2.9%
CCOC(=O)c1ccc(NC(=S)N2CCN(S(C)(=O)=O)CC2)cc1 | 8.5% | 9.0% | 2.3% | 14.2% | -14.5% | 1.9% | 0.2% | 0.0%
CCn1ccc2cc(S(=O)(=O)N3CCCN(C(=O)Nc4cccc(Cl)c4)CC3)ccc21 | / | -0.1% | -4.2% | ? | / | / | / | -9.0%[46.1 µM]
Cc1ccc2nc(-c3ccc4c(c3)NC(=O)CO4)cn2c1 | -19.8% | 0.0% | / | / | -0.5% | -1.8% | ? | ?
CCOC(=O)CNC(=O)CSc1ccc2nnc(-c3cccnc3)n2n1 | 2.0% | -17.1% | / | / | 2.4% | / | 10.4% | -21.2%
CC1=C(C(=O)OC(C)C)C(c2ccccn2)n2ncnc2N1 (stereo unspecified) | -2.8% | -1.5% | 0.0% | -12.4% | 0.1% | -0.6% | / | /
COc1ccc(CCN(C)C(=O)CCc2nnc(-c3ccccc3)o2)cc1OC | 1.2% | 20.7% | / | / | -1.0% | -3.3% | ? | ?
CS(=O)(=O)N1CCN(C(=O)C2c3ccccc3Oc3ccccc32)CC1 | 12.4% | -6.6% | 3.4% | 7.3% | -1.6% | -9.4% | 2.0% | 17.4%
CCOc1ccccc1NC(=O)c1cccc2ccccc12 | -30.9% | -4.8% | / | / | -12.5% | -32.6% | -17.4% | -11.5%
COCCN1C2=C(C(=O)CC(C)(C)C2)C(c2ccc(O)c(OC)c2)C2=C1CC(C)(C)CC2=O | 0.9% | 0.8% | / | / | 2.1% | 5.1% | / | /
COc1ccc(OC)c(NC(=O)CS(=O)(=O)Cc2ccccc2)c1 | -2.0% | -7.1% | / | / | 5.2% | 7.6% | -10.6%[46.1 µM] | -2.7%[46.1 µM]
Cn1ncc(Cl)c(Oc2ccccc2)c1=O | 13.6% | 6.9% | -0.7% | -10.0% | -3.8% | -33.6% | 13.4% | -5.2%
O=C(CCN1CCc2ccccc2C1)Nc1ccc2c(c1)OCO2 | 3.9% | 15.4% | 4.8% | -6.9% | -0.5% | 0.6% | 3.6% | 18.0%
CCN(CC)S(=O)(=O)c1ccc(Cl)c(C(=O)OCC(=O)c2c(N)n(C)c(=O)n(C)c2=O)c1 | -4.3% | ? | / | / | -1.0% | -0.6% | -25.1%[46.1 µM] | ?
Cc1ccc(C(=O)Nc2ccc(N3CCN(C)CC3)cc2)cc1 | -11.5% | 28.2% | / | / | 5.2% | 2.7% | ? | 25.4%[46.1 µM]
C/C(=N\NC(=O)c1ccccc1C)c1ccc(NC(=O)c2cccs2)cc1 | -14.5% | -13.0% | 3.7% | -7.5% | -5.0% | -94.1% | -25.2% | -14.4%
CC(C)(CO)NCC(=O)Nc1cc(C(F)(F)F)cc(NC(=O)CNC(C)(C)CO)c1Cl | 5.0% | -20.0% | 1.9% | -0.3% | -15.0% | -2.5% | -7.1% | ?
COc1ccc(S(=O)(=O)N(C)CC(=O)N2CCC(C(N)=O)CC2)cc1Cl | 7.0% | -4.2% | 4.6% | 3.8% | -0.7% | 3.9% | 1.5% | 8.0%
Cc1ccc(S(=O)(=O)N2CCC(C(=O)N[C@H](C(=O)NC3CCS(=O)(=O)C3)C(C)C)CC2)cc1 (stereo partly specified) | 27.1% | 4.8% | 6.2% | -1.7% | -3.1% | -0.5% | 16.6% | -1.9%
CCN(C(=O)/C=C/c1ccc(OC)cc1)C1CCCCC1 | -7.3% | 22.1% | / | / | -6.0% | -23.0% | 10.8% | -16.5%
CCN1CCN(c2ccc(N=Cc3ccccc3O)cc2)CC1 | -10.8% | -2.7% | / | / | -1.3% | 6.0% | / | /
COc1ccc(/C=C(\C#N)c2nc(-c3cc4ccccc4oc3=O)cs2)cc1OC | / | -8.0% | 0.4% | 6.5% | / | / | / | -0.1%[46.1 µM]
